# Bioassay records deposited in PubChem by ICCB-Longwood Screening Facility, Harvard Medical School.
# Sa growth inh: S. aureus growth inhibition at 42 and 30 °C, primary screen, LtaS inhibitor project, RN4220, two temperatures | AID 720641, 2013 | relative growth, % (no concentration beside the values) | 170,000 compounds, 0.53% hits | OD600, 20 h, 42 °C; active compounds read low;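 active = growth at 42 °C up to 50% and 20 or more points under that at 30 °C, or under 10% at both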;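 note: 300 nL library stock went into each well; scaled to the means of positive and negative controls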
# GIV-Gai inh: inhibitors of GIV peptide binding to Galpha-i3, primary screen, biochemical, fluorescence polarization, FITC-GIV GBA peptide, rat Galphai3; 90 min; active compounds read low; scaled: aluminum fluoride 0%, vehicle 100%; 210,000 compounds, 0.42% hits; Guanine nucleotide-binding protein G(i) subunit alpha-3 (Rattus norvegicus), P08753; percent of control (FP), % (no concentration beside the values);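 active = replicate mean at 85% of control or lower, very high polarization wells dropped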;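 note: wells of about 15 µL received 100 nL stock; the first replicate is given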
# Target sequence (P08753 whole entry, looked up): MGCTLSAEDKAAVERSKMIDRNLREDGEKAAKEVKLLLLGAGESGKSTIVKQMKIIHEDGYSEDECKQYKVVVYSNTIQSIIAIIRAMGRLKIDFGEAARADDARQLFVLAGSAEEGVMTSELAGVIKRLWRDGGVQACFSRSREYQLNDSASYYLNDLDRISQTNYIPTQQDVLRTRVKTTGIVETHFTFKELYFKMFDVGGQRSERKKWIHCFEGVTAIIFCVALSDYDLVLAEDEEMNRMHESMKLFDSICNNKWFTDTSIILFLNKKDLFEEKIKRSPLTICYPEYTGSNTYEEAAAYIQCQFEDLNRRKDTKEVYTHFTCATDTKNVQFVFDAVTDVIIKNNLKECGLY
# HCMV UL50-53 inh: inhibitors of HCMV UL50-UL53 interaction, biochemical, HTRF; normalized percent inhibition; inhibition, % (test concentration not listed); 190,000 compounds, 0.15% hits;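 active = both replicates at 50% or more, plus weaker picks with an unusually low signal ratio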;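 note: stock transfer was 100 nL into about 20 µL; 0% = negative control wells and 100% = wells with untagged competitor protein; inactives centre near -12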
# Sa growth inh second temp: recorded beside Sa growth inh, whose call it bears; relative growth, %; measured here: growth at 30 °C;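 optical density after 20 h as mean of two plates; 100% = untreated growth and lower means inhibition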
# Numbers without * were called inactive; x = not tested or not shown.
SMILES,Sa growth inh,Sa growth inh second temp,GIV-Gai inh,HCMV UL50-53 inh
CCCNC(=O)Nc1cccc(-c2noc(-c3ccc(Cl)cc3)n2)c1,x,x,97,-1
CCOC(=O)c1nc(COc2ccccc2Cl)[nH]c(=O)c1C,78,76,98,1
Cc1ccc(CN(C)CC(O)COC(c2ccccc2)c2ccccc2C)o1 (stereo not given),112,87,x,11
CCCC(O)c1nc2ccccc2n1CC(=O)N(c1ccccc1)C(C)C (stereo not given),x,x,101,-6
CS(=O)(=O)Nc1cc(C(=O)N2CCN(CC(=O)N3CCCC3)CC2)ccc1N1CCNCC1,x,x,100,-15
Cc1ccc(P(=Nc2cc(Cl)ccc2Cl)(N2CCOCC2)N2CCOCC2)o1,100,89,x,-25
COc1ccc(-c2cc(C(F)(F)F)nc(SCCC(=O)NC(C)C)n2)cc1,96,95,99,x
COc1cccc(NC(=O)C(Sc2nnc3n2CCCCC3)c2ccccc2)c1 (stereo not given),99,100,x,12
COc1ccccc1CC(=O)NCc1nn(-c2ccccc2)nc1C,88,89,108,-46
COc1cccc(NC(=O)Cn2nc(N3CCN(c4ccccc4)CC3)ccc2=O)c1,100,90,101,x
COc1ccc(-c2nc(SCC(=O)Nc3ccc4c(c3)OCO4)c(-c3ccc(F)cc3)[nH]2)cc1OC,113,78,100,-10
O=C(COC(=O)c1cccnc1Cl)Nc1cccc(Br)c1,100,79,x,-11
CCOC(=O)c1[nH]c(C)c(CCC(=O)Nc2ccccc2C(=O)OC)c1C,91,89,107,x
O=C(COc1ccc2ccccc2c1)NC1CCC(O)CC1 (stereo not given),97,93,x,-2
COc1ccccc1OCC(=O)Nc1nc(-c2ccc(S(=O)(=O)N3CCCC3)cc2)cs1,79,98,x,-21
CC(C)n1cnnc1SCC(=O)NC(=O)c1cccn1C,104,85,x,-34
O=C(O)CCOc1cccc(Br)c1,80,94,x,-14
COc1ccc(C(C)(C)C)cc1S(=O)(=O)N1CCN(c2ccccc2)CC1,93,97,103,10
Cc1cccc(NC(=O)NCCOCCn2c(=O)oc3ccccc32)c1C,96,88,101,5
CCCCNC(=S)NN1C(=O)NC(C)(c2cccc(OC)c2)C1=O (stereo not given),104,95,x,-20
CC(c1ccccc1)n1c(Cn2ncc3ccccc3c2=O)n[nH]c1=S (stereo not given),107,99,109,-27
Cc1ccc2nc(-c3cccc(NC(=O)COc4ccccc4)c3C)oc2c1,118,101,95,3
Cc1ccc(C(=O)OCC(=O)N2C(C)CCCC2C)s1 (stereo not given),94,91,x,21
COC(=O)c1ccccc1NC(=O)CN1C(=O)CSc2c1c(C)nn2-c1ccccc1,x,x,104,-20
CNc1ccccc1C(=O)OCc1ccc(C(=O)OC)cc1,107,105,108,-3
CCN(CC)c1ccc(C(=O)N2CCC(c3ccncc3)CC2)cc1,88,88,98,x
CN(C)c1ccc(CNC(=O)c2cnc3sc(N4CCCC4)nn3c2=O)cc1,88,92,100,x
CSc1c(-c2cccs2)c(N)nn1S(=O)(=O)c1ccccc1,80,96,100,-12
CCOC(=O)C1CCCN(c2nc3c(S(=O)(=O)c4ccc(C(C)C)cc4)nnn3c3ccccc23)C1 (stereo not given),x,x,98,-20
N=c1n(CCO)c2ccccc2n1CCN1CCCCC1,97,86,102,3
COc1ccc2c(c1)c1c(c(=O)n(Cc3ccccc3)c(=O)n1CC(=O)Nc1c(C)cccc1C)n2C,117,90,107,x
CN1C(=O)/C(=C\c2ccc(C(=O)N3CCOCC3)cc2)SC1=S,84,89,105,-52
CCCC(O)C(C)(C)CO (stereo not given),98,97,x,-3
COc1ccc(N2CCN(CCNC(=O)c3nnc(Cc4ccccc4Cl)o3)CC2)cc1,111,77,102,x
Cc1c(C)n(Cc2ccccc2)c2ccc(C(=O)N3CCN(c4ccc(F)cc4)CC3)cc12,82,86,108,x
Cc1cc(=O)n2c(n1)NC(=NCc1ccccc1)NC2c1ccccc1 (stereo not given),x,x,104,-15
CCCCC(=O)N1CCc2cc(OC)c(OC)cc2C1COc1ccc(C(=O)OCC)cc1 (stereo not given),95,52,98,x
O=c1/c(=C/c2ccco2)sc2nc3ccccc3n12,89,89,x,-28
O/N=C1\CCCc2nn(-c3ccc(Cl)c(Cl)c3)nc21,96,80,99,-22
CCOc1ccc(/C=C2\SC(=O)N(CCNC(=O)c3c(CC)noc3C)C2=O)cc1OC,100,100,x,-3
CCC1Oc2ccccc2N(Cc2ccccc2Cl)C1=O (stereo not given),99,93,105,3
O=C(Nc1ccccc1)c1ccc2c3c(onc13)-c1ccccc1C2=O,68,62,111,-9
CCN(CC)C(=O)c1cccc(Cl)c1,110,74,x,-8
COc1ccc(S(N)(=O)=O)cc1C(=O)N1CCCC1,96,96,x,-1
Cc1c(C(=O)N2CCC(C(N)=O)(N3CCCCC3)CC2)sc2ncnc(N3CCOCC3)c12,x,x,111,5
COc1ccc(CSc2nnc(CSc3cccs3)n2C)cc1,100,82,101,-42
Cn1c(=O)c(=O)n(C)c2cc(S(=O)(=O)N3CCN(c4ccccc4F)CC3)ccc21,93,99,105,-9
CCC(Sc1ncc(S(=O)(=O)c2ccc(C)c(C)c2)c(=O)[nH]1)C(=O)Nc1ccc(OC)cc1 (stereo not given),119,81,107,x
COc1ccc(NC(=O)c2scc(-c3ccccc3)c2S(=O)(=O)N(C)c2ccc(C)cc2)cc1,x,x,103,-31
Cc1nn(-c2ccccc2)c(C)c1/C=N/N=C1\C(=O)Nc2ccccc21,80,83,x,-32

# Filtered by structure, the entries above with bromine
SMILES,Sa growth inh,Sa growth inh second temp,GIV-Gai inh,HCMV UL50-53 inh
O=C(COC(=O)c1cccnc1Cl)Nc1cccc(Br)c1,100,79,x,-11
O=C(O)CCOc1cccc(Br)c1,80,94,x,-14

# Other records follow.
SMILES,Sa growth inh,Sa growth inh second temp,GIV-Gai inh,HCMV UL50-53 inh
Cc1ccc(-c2nn(-c3ccccc3)cc2C(=O)Nc2ccccc2C)o1,73,88,x,-9
CCCCNc1nc(NCC)nc(-n2cnc(SC)n2)n1,x,x,101,-14
CSCCC(C(=O)O)N1C(=O)c2ccccc2C1=O (stereo not given),97,94,x,-4
S=c1n(CN2CCCC2)nc2sc3ccccc3n12,39*,67*,x,-47
C1CCC2(CC1)C1=C(CCCC1)Nc1nnnn12,99,94,98,-15
CN1C(=O)Cc2cc(S(=O)(=O)CCC(=O)N3CCN(Cc4ccc5c(c4)OCO5)CC3)ccc21,101,103,101,10
FC(F)(F)c1cc(C(F)(F)F)c2ccc(Cl)nc2n1,x,x,103,-40
O=C1CC(c2ccccc2)Cc2c1cnn2-c1nc2ccccc2[nH]1 (stereo not given),113,86,101,-15
CC(C)(C)c1csc(=S)n1CCc1ccccn1,82,40,102,-10
COc1cccc(CSc2nnc(Cc3cccs3)n2C2CCCCC2)c1,5.8*,-0.7*,x,-38
CC1Cc2ccccc2N1C(=O)Cc1csc(NC(=O)Nc2ccccc2)n1 (stereo not given),x,x,107,-11
Cc1ccc(NC(=O)C2CCCN(S(=O)(=O)c3ccc4[nH]c(=O)ccc4c3)C2)cc1Cl (stereo not given),109,88,98,x
Cc1ccc2nc(N3CCN(c4cccc(C)c4C)CC3)c(-n3nc(C)cc3C)nc2c1,90,87,101,x
Cc1cnc(C(=O)OCC(=O)N2C(C)CCCC2C)cn1 (stereo not given),102,90,x,-35
COc1ccc2[nH]c(C(=O)N(Cc3ccccn3)Cc3ccccn3)cc2c1,102,92,101,1
COC(=O)c1oc2ccc(Br)cc2c1NC(C)=O,93,92,106,5
CC1Cc2ccccc2N1C(=O)Nc1ccc(Cl)c(Cl)c1 (stereo not given),107,92,x,-11
Cc1ccc(C(=O)Nc2ccc3oc(-c4ccccc4C)nc3c2)cc1,95,82,102,-20
Cc1ccc(OCC(=O)NC2CC(C)(C)NC(C)(C)C2)c(C)c1,105,92,104,x
CCN1CCN(c2cc(C)nc3nc(-c4ccc(C(C)(C)C)cc4)nn23)CC1,x,x,109,5

# Arranged by length of the SMILES (lowest first): part of the list above.
SMILES,Sa growth inh,Sa growth inh second temp,GIV-Gai inh,HCMV UL50-53 inh
COC(=O)c1oc2ccc(Br)cc2c1NC(C)=O,93,92,106,5
CC1Cc2ccccc2N1C(=O)Nc1ccc(Cl)c(Cl)c1 (stereo not given),107,92,x,-11
COc1ccc2[nH]c(C(=O)N(Cc3ccccn3)Cc3ccccn3)cc2c1,102,92,101,1

# The listing continues:
SMILES,Sa growth inh,Sa growth inh second temp,GIV-Gai inh,HCMV UL50-53 inh
COc1ccccc1C(=O)NCCOc1ccc(C)c(C)c1,75,76,x,-18
CC(C)Cn1c(=O)c2sccc2n2c(SCC(=O)NCCC3=CCCCC3)nnc12,x,x,112,1
COc1ccc(NC(=O)C(NC(=O)/C=C\c2ccc3c(c2)OCO3)c2ccccc2)cc1 (stereo not given),108,94,97,-11
Brc1ccc(Cn2ncc3ccccc32)cc1,87,72,98,-16
CCC1CC(/C(C)=N/NC(N)=O)OC1=O (stereo not given),104,91,100,-10
COc1ccc(-c2noc(CSCC(=O)Nc3cc(OC)c(OC)c(OC)c3)n2)cc1OC,97,90,105,x
O=C(Nc1sc2c(c1C(Nc1ccccn1)c1cccnc1)CCCC2)c1ccccc1 (stereo not given),x,x,101,-32
COc1ccc(NC(=O)c2ccco2)cc1NC(=S)NC(=O)Cc1ccccc1,106,81,104,8
COc1ccc(-c2noc(-c3ccccc3OCC(=O)NCC3CCCO3)n2)cc1 (stereo not given),x,x,102,-20
Cn1c(SCC(=O)c2ccc(Cl)s2)nnc1C1COc2ccccc2O1 (stereo not given),95,87,x,-17
CCN1C(=O)c2ccc(Oc3ccc4c(c3)C(=O)N(CC)C4=O)cc2C1=O,120,87,103,-38
Cc1ccc2oc3c(c(=O)c2c1)C(c1ccccc1F)N(CCCN1CCOCC1)C3=O (stereo not given),88,89,103,-36
O=C(NCc1ccccc1)c1cc(Sc2cccc(Cl)c2)nc2ccccc12,106,80,104,x
COc1cccc(OCC2CCCNC2)c1 (stereo not given),98,91,102,-11
N#Cc1ccccc1NC(=O)C(=O)NCCc1csc2nc(-c3cccc(F)c3)nn12,77,80,104,x
Fc1ccc(CSC(=S)N2CCN(C(=S)SCc3ccc(F)cc3)CC2)cc1,110,103,100,-1
CCn1c2ccccc2c2cc(CN(C)Cc3ccccc3)ccc21,88,73,x,2
Cc1cc2oc(=O)n(C)c2cc1NC(=O)c1ccccc1,x,x,104,-32
CCCCc1ccc(C(=O)Nc2ccc3nc(N4CCN(CC)CC4)cc(C)c3c2)cc1,102,94,102,-20
C=CCNC(=O)c1c(N)n(/N=C/c2ccccc2O)c2nc3ccccc3nc12,99,76,102,-24

# Of the compounds above, these have a COOH group.
SMILES,Sa growth inh,Sa growth inh second temp,GIV-Gai inh,HCMV UL50-53 inh
O=C(O)CCOc1cccc(Br)c1,80,94,x,-14
CSCCC(C(=O)O)N1C(=O)c2ccccc2C1=O (stereo not given),97,94,x,-4

# Following part:
SMILES,Sa growth inh,Sa growth inh second temp,GIV-Gai inh,HCMV UL50-53 inh
O=C1c2ccccc2C(Nc2cccnc2)N1Cc1ccc2c(c1)OCO2 (stereo not given),x,x,107,6
N#CC(c1ccc2c(c1)OCO2)N1CCN(C(C#N)c2ccc3c(c2)OCO3)CC1 (stereo not given),103,92,101,-19
O=C1Nc2ccccc2/C1=N\N=C\C1=C(N2CCOCC2)C(=C\c2ccccc2)/CC1,87,93,x,-26
Cc1ccccc1-c1nc(C#N)c(NC2CCCCC2)o1,106,98,100,-4
Cc1ccc(C(=O)NC(O)(C(F)(F)F)C(F)(F)F)cc1,89,97,x,18
Cc1c(NC(=O)c2nc3ccccc3nc2N2CCCCC2)cccc1[N+](=O)[O-],105,86,106,-23
COc1ccc(-c2noc(-c3ccc(NCCc4ccccc4)c([N+](=O)[O-])c3)n2)cc1,96,91,103,3
O=C(CCCn1c(=O)[nH]c2ccsc2c1=O)Nc1ccc(F)cc1,83,88,103,-10
CCCCOc1ccc(CNC(=O)CN2C(=O)CCn3nc(-c4cn(C)c5ccccc45)cc32)cc1,96,87,108,x
CCCn1c2ccccc2c2cnn(CC(=O)NCC3CCN(Cc4ccccc4C)CC3)c(=O)c21,90,48,103,x

# Record cards (already shown):
# CCCn1c2ccccc2c2cnn(CC(=O)NCC3CCN(Cc4ccccc4C)CC3)c(=O)c21 in the list: Sa growth inh = 90; Sa growth inh second temp = 48; GIV-Gai inh = 103; HCMV UL50-53 inh = x
# N#CC(c1ccc2c(c1)OCO2)N1CCN(C(C#N)c2ccc3c(c2)OCO3)CC1 (stereo not given) in the list: Sa growth inh = 103; Sa growth inh second temp = 92; GIV-Gai inh = 101; HCMV UL50-53 inh = -19

# Following part
SMILES,Sa growth inh,Sa growth inh second temp,GIV-Gai inh,HCMV UL50-53 inh
CC(=O)N(c1ccccc1)c1nc(COC(=O)/C=C/c2cccs2)cs1,112,102,x,-23
Cc1cc(C)c(NC(=O)c2nc3ccccc3nc2N2CCCCC2)c(C)c1,136,92,106,x
O=C(Cn1ncn2c(cc3cc(F)ccc32)c1=O)NC1CCCCC1,134,87,101,-31
Oc1ccc(Oc2c(F)c(F)c(Oc3ccc(O)cc3)c(F)c2F)cc1,107,77,x,-10
CCOc1ccc(NC(=O)C(NC(=O)C2CCC(C)CC2)C(C)C)cc1 (stereo not given),98,94,108,-5
CNS(=O)(=O)c1cccs1,96,92,115,x
CC1=C(C(=O)OCc2ccc3c(c2)OCO3)C(c2cccc(Br)c2)NC(=O)N1 (stereo not given),x,x,100,-16
Cn1c(=NC(=O)C2=NNC(=O)CC2)sc2ccccc21,92,90,x,-2
